Mtb betalactam: beta-lactam sensitization of Mtb H37Rv; 330,000 compounds, 0.27% hits; M. tuberculosis H37Rv growth with meropenem, percent inhibition; hits of this screen are not shown here; inhibition, % at 25 µM;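 active = about 74% or more and at least 40 points above the plate without the antibiotic, then above 30% in a dose series; inconclusive = first-round hits that could not be retested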;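 note: growth measured after seven days incubation then overnight dye step; 0% = bacteria only wells and 100% = bacteria with antibiotic; twin plates without the antibiotic show which effects depend on it; some results filed as inactive read as strong as hits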
RecA intein inh: blocks M. tuberculosis RecA intein splicing | P9WHJ3 | cell-free RecA intein splicing, fluorescence | inhibition, %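 (about 9 µM by stock and volumes)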 | 290,000 compounds, 0.75% hits; in the data active = inhibition above about 30%; inconclusive = no clear call, values can overlap the other calls;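 note: 0% = vehicle wells and 100% = reference inhibitor control wells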
Target sequence (P9WHJ3 whole entry, looked up): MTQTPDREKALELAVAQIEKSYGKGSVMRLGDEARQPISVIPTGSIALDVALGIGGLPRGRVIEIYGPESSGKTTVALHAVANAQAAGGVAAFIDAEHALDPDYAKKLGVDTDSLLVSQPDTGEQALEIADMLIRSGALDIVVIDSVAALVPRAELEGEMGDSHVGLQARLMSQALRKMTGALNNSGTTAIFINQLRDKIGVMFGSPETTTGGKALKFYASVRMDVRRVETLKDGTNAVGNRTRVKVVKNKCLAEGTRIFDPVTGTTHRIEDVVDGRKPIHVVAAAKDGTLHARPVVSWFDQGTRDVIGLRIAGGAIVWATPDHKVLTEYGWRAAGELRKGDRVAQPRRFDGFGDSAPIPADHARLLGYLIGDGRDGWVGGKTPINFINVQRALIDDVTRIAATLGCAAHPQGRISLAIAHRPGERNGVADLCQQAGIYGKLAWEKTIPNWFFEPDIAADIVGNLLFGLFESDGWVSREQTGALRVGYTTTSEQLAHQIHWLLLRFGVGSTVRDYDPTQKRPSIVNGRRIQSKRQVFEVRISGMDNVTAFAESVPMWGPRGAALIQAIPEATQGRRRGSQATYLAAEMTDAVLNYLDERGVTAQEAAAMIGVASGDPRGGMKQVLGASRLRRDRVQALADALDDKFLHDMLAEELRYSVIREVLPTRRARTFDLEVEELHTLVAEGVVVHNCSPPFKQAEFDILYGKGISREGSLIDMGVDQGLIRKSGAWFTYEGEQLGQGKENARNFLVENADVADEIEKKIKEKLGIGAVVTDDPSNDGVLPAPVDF
YopH PTP inh: YopH (Yersinia) phosphatase inhibition | 140,000 compounds, 0.16% hits | fluorescence Ex485/Em525 | AID 898 | inhibition, %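 (about 10 µM by stock and volumes)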;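 active = inhibition of 50% or more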;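 note: controls were vehicle for no effect and minimum signal wells for full effect; inactives centre near -20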
Mtb growth: M. tuberculosis H37Rv growth inhibitors, H37Rv strain (AID 1626) | M. tuberculosis H37Rv growth inhibition; higher % means a stronger effect | one-dose inhibition, % at 10 µM; IC50 in µM for titrated hits | 220,000 compounds, 0.95% hits;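 active = confirmed in a dose series; inconclusive = inhibition above 80% but not taken into the dose series; inactive = below 80% or under 30% at every dose of the series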;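 note: bacteria incubated seven days before Alamar blue readout; 0% = bacteria only wells and 100% = bacteria with antibiotic wells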
Arbovirus anti: antivirals against arbovirus infection; inhibition, % at 10 µM; 200,000 compounds, 0.37% hits; AID 1251; arbovirus infection cell-based antiviral screen;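 active = inhibition from about 30%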;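 note: bluetongue infection of BSR cells; cell survival read as ATP light after 72 h; 0% = infected wells without compound and 100% = uninfected wells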
Arbovirus anti repeat: second read-out of Arbovirus anti, no call of its own (marks repeat the call); inhibition, %; measured here: 10K subset replicate screen; many hits read low in the repeat;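 first of two repeat runs on a subset; 0% = infected and 100% = uninfected wells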
Numbers without * were called inactive; ? = inconclusive; · = no result given. An excerpt; count on the stated rates, not on these rows.

Start of the listing, in advance:
SMILES	Mtb betalactam	RecA intein inh	YopH PTP inh	Mtb growth	Arbovirus anti	others
Cc1ccc(N/N=C(\Cc2nc3ccccc3[nH]2)c2ccccc2)cc1	4	·	-12	?	-15
Cc1ccc2[nH]c3c(=O)n(CC(=O)N4CCN(C)CC4)ncc3c2c1	-1	-3.5	·	·	·
COc1ccc(NC(=O)CN2CCC(NC(=O)c3ccco3)CC2)c([N+](=O)[O-])c1	-1	1.8	·	·	·
CC(C)c1nc(NCCO)c(C#N)c2c1CCCC2	5	3.5	·	-3%	·

The listing, previewed entries included:
SMILES	Mtb betalactam	RecA intein inh	YopH PTP inh	Mtb growth	Arbovirus anti	others
Cc1ccc(N/N=C(\Cc2nc3ccccc3[nH]2)c2ccccc2)cc1	4	·	-12	?	-15
Cc1ccc2[nH]c3c(=O)n(CC(=O)N4CCN(C)CC4)ncc3c2c1	-1	-3.5	·	·	·
COc1ccc(NC(=O)CN2CCC(NC(=O)c3ccco3)CC2)c([N+](=O)[O-])c1	-1	1.8	·	·	·
CC(C)c1nc(NCCO)c(C#N)c2c1CCCC2	5	3.5	·	-3%	·
Cc1ccc(OCCCCCCN2CCNCC2)cc1	-7	-0.7	·	·	·
OCCC1CN(Cc2nc(-c3ccccc3)cs2)CCN1C1CCCC1 (configuration not stated)	10	-2.3	·	4%	-17
COCCN(C(=O)CCc1ccccc1OC)c1nnc(-c2cccnc2)s1	-3	8.1	·	-6%	-13
Cn1c(=O)c2c(nc(CN3CCOCC3)n2CC(O)CO)n(C)c1=O (configuration not stated)	0	·	-8	-5%	3
O=C(O)/C=C/C(=O)Nc1ccccc1C(=O)OCC(=O)c1ccc2c(c1)OCCO2	-1	20	·	-15%	5
CCCCSCc1nc2ccccn2c1Br	-6	·	·	8%	-7
O=C(Cn1nnc(-c2ccc(Cl)cc2)n1)NCCC1=CCCCC1	5	0.3	-42	5%	3
Cc1nn(Cc2ccccc2)c(C)c1NC(=O)CCCn1nc(C)c([N+](=O)[O-])c1C	-5	1.9	-29	-4%	-2
CC(C)NC(=O)NC(=O)COC(=O)c1cccc(OC(F)F)c1	14	-0.5	·	-1%	1
O=C(O)C1=C[C@@H](c2csc3ccccc23)C[C@@H](OCCCCO)O1	-8	0.9	·	-4%	2
NC(=S)N=Nc1c(O)[nH]c2c(Br)cc(Br)cc12	-3	4.7	·	8%	-18
Cc1oncc1-c1cn2ccccc2n1	-6	-0.4	-3	11%	-2
CC1(C)Cc2nc3oc4c(N5CCOCC5)ncnc4c3cc2CO1	-1	·	-51	1%	12
O=C(Nc1ccccc1Oc1cccnc1)C1CCCN(Cc2ccccc2O)C1 (configuration not stated)	-5	-0.7	·	·	·
Cc1ccc(S(=O)(=O)NC(C)CCc2ccccc2)cc1 (configuration not stated)	-3	3.2	-23	16%	-14
Cc1ccc(/C=C/c2ccc3cccc(O)c3n2)s1	100	-3.6	·	·	·
O=C(CN(C(=O)c1csnn1)c1ccc2c(c1)OCCO2)NCc1ccccc1	-4	-6.2	·	·	·
CC1(c2nnc(Cc3ccccc3)o2)CC(c2ccc(C#N)cc2)=NO1 (configuration not stated)	-9	0.4	·	-5%	·
CCN(CC)c1ccc(/C=N/NC(=O)c2nnn(-c3nonc3N)c2C(C)C)c(O)c1	23	-4.3	·	·	·
CCc1cccc(C)c1NC(=S)N(CCN(C)C)C(C)c1cccnc1 (configuration not stated)	-5	0.9	·	5%	6
Cc1ccc(NCC(O)C(O)C(O)CO)cc1C (configuration not stated)	-3	-2.3	-7	-2%	3

A run of entries from the list above:
SMILES	Mtb betalactam	RecA intein inh	YopH PTP inh	Mtb growth	Arbovirus anti	others
CCc1cccc(C)c1NC(=S)N(CCN(C)C)C(C)c1cccnc1 (configuration not stated)	-5	0.9	·	5%	6
Cc1ccc(NCC(O)C(O)C(O)CO)cc1C (configuration not stated)	-3	-2.3	-7	-2%	3

(next part)
SMILES	Mtb betalactam	RecA intein inh	YopH PTP inh	Mtb growth	Arbovirus anti	others
Cc1ccc(S(=O)(=O)N(C)C)cc1NC(=O)C1CCC1	-1	2.4	·	-2%	·
CC1CCC(NC(=O)CCS(=O)(=O)c2ccc3c(c2)CC(C)N3C(=O)C2CC2)CC1 (configuration not stated)	-17	3.3	·	·	·
N#C/C(=C\c1ccc(OCc2ccc(F)cc2)cc1)C(=O)Nc1cccc(C(=O)O)c1	48	1.9	·	8%	·
Cc1nnc(SCCn2c(N3CCN(C)CC3)nc3c2c(=O)[nH]c(=O)n3C)s1	-7	2.1	-7	-11%	3
O=C(Cn1cnc(S(=O)(=O)N2CCCC2)c1)Nc1ccc(OC(F)(F)F)cc1	7	1.3	·	·	·
O=C(Cn1cccc1)NCc1cccs1	·	-0.9	-34	4%	-1
CCCn1c(SCC(=O)Nc2ccc(C(=O)Nc3ccccc3OC)cc2)n[nH]c1=O	-3	1.0	·	-3%	-11
CCOc1ccc(NC(=O)N(CCCN2CCOCC2)Cc2cccnc2)cc1	-5	0.0	-7	0%	1
O=C(Nc1ccnn1C1CCN(CCCc2ccccc2)CC1)c1cccc(F)c1	2	-1.5	·	·	·
CC(=O)OCCc1[nH]c2ccccc2c1C	-4	-2.9	·	·	·
c1ccc(-c2cc3c(N4CCOCC4)ncnc3s2)cc1	82	0.0	-29	0%	6
CCCCN(C(=O)COC(=O)CSc1ccc([N+](=O)[O-])cc1)c1c(N)n(CCC)c(=O)[nH]c1=O	2	-4.2	·	·	·
COc1ccc(Oc2nccc(-c3ccccc3)c2C#N)cc1	1	-1.4	-6	8%	-3
Cc1cc(C)cc(NC(=O)COC(=O)CCCC2=NS(=O)(=O)c3ccccc3N2)c1	5	-1.4	·	6%	21
CCN(CC)CCN(Cc1cc2cc3c(cc2[nH]c1=O)OCCO3)C(=O)NC1CCCCC1	-8	-1.2	-8	2%	2
O=C(CN1C(=O)NC(Cc2ccccc2)C1=O)Nc1ccc(F)cc1 (configuration not stated)	-1	-2.3	-22	-7%	11
Cn1nnnc1Sc1ncnc2scc(-c3ccc(F)cc3)c12	79	32*	-27	·	-41
CC(C)(O)C#Cc1ccc(C(=O)NCCc2ccc(S(N)(=O)=O)cc2)cc1	-2	2.9	·	2%	21
Cc1[nH]c2ccccc2c1C1=CCNCC1	-12	-1.9	-55	6%	46*
Cc1ccc(C)c(CSC2=NCCN2S(=O)(=O)c2ccccc2)c1	?	11	·	·	·
O=C(NC12CC3CC(CC(C3)C1)C2)C1CC(=O)N(c2ccc(Br)cc2)C1 (configuration not stated)	-1	0.5	16	-7%	0
O=C(c1ccc(Cl)c(Cl)c1)N1CCN(Cc2ccc3c(c2)OCO3)CC1	-10	3.2	·	·	·
O=C(Cc1ccc(F)cc1)NCC1CCCO1 (configuration not stated)	-1	-1.0	·	-2%	2
COc1cc2[nH]c(=S)n(CCN3CCOCC3)c(=O)c2cc1OC	-5	-0.4	-33	-5%	-4
Cc1ccccc1NC(=O)C1CCCN(C(=O)Nc2ccc(F)cc2)C1 (configuration not stated)	2	1.0	·	·	·

3 structures out of the list, sorted by number of heavy atoms, lowest first.
SMILES	Mtb betalactam	RecA intein inh	YopH PTP inh	Mtb growth	Arbovirus anti	others
Cc1ccccc1NC(=O)C1CCCN(C(=O)Nc2ccc(F)cc2)C1 (configuration not stated)	2	1.0	·	·	·
O=C(Cn1cnc(S(=O)(=O)N2CCCC2)c1)Nc1ccc(OC(F)(F)F)cc1	7	1.3	·	·	·
O=C(Nc1ccnn1C1CCN(CCCc2ccccc2)CC1)c1cccc(F)c1	2	-1.5	·	·	·

Next records
SMILES	Mtb betalactam	RecA intein inh	YopH PTP inh	Mtb growth	Arbovirus anti	others
CN1CCN(c2ccccc2NC(=O)c2c(F)cccc2F)CC1	0	-4.0	·	-5%	19
O=C(Nc1ccccc1C(=O)NCCN1CCOCC1)c1cccc([N+](=O)[O-])c1	-1	0.1	·	·	·
O=S(=O)(Nc1ccccc1Br)c1cccs1	-11	0.6	·	·	·
Cc1ccc(CNC(=O)CN(C)S(=O)(=O)c2cnc[nH]2)cc1	-4	-1.5	-6	3%	5
O=C1N=C(N2CCCC2)S/C1=C\c1cn[nH]c1-c1ccccc1	-5	2.0	-19	-3%	1
CCSC1=N/C(=C\c2ccc3c(c2)OCO3)C(=O)S1	7	-5.6	2	5%	-2
Cc1ccc(S(=O)(=O)N2CCOCC2)cc1NC(=O)CSc1nc2ccccc2c(=O)n1Cc1ccccc1	6	7.5	-26	3%	-11
CC(=O)NCCc1cc2ccc(C)c(C)c2[nH]c1=O	-5	2.6	-24	-1%	1	Arbovirus anti repeat=2
O=C(Nc1ccc(Oc2ccccc2)cc1)C1CCN(c2ncccn2)CC1	0	-0.2	-31	2%	-4
CCCCc1nnc(NC(=O)CCS(=O)(=O)Cc2ccccc2)s1	-4	-1.0	·	·	·
CCOC(=O)CSc1nc(C)cc(Oc2ccc(=O)n(C)n2)n1	-1	0.6	-8	·	-1	Arbovirus anti repeat=1
Nc1nc2ccccc2n1/N=C/c1ccc(-c2ccccc2)o1	92	-3.1	-38	·	39*
CCCC(C)C(=O)NCc1ccccc1OC (configuration not stated)	?	·	-14	-3%	8
NC(=O)CC(NC(=O)Cc1ccc(Br)cc1)c1ccc(NCCc2ccccc2F)c([N+](=O)[O-])c1 (configuration not stated)	-9	-0.8	·	-11%	·
O=S(=O)(CCc1nc2ccccc2o1)c1ccc(Cl)cc1	-5	-0.9	1	5%	13
O=C(Nc1cnc2sccn2c1=O)c1ccccc1Cl	-2	-2.0	-29	-9%	5
Cc1ccc(S(=O)(=O)NCC2CCC(C(=O)N3CCC4(CC3)OCCO4)CC2)cc1 (configuration not stated)	0	-0.6	-44	6%	2
CCOc1ccc(NC(=O)CN(C)C(=O)c2cc(C)on2)cc1OCC	-9	-1.5	·	·	·
CC(=O)c1c(C)n(CC2CCCO2)c2ccc(O)cc12 (configuration not stated)	86	-1.2	19	-7%	5
CCc1c(C)nc2ncnn2c1N1CCC(C(=O)NCc2cccc(OC)c2)CC1	-5	1.6	-33	-9%	5
CCc1nnc(NS(=O)(=O)c2ccc(Nc3ccc([N+](=O)[O-])c4nonc34)cc2)s1	3	30	·	1%	9
CC(C)(C)NC(=O)NC(=O)COC(=O)COc1ccc(Cl)cc1Cl	0	·	·	-8%	24
COC(=O)c1cn(NC(=O)c2ccc(OC)c([N+](=O)[O-])c2)c(=O)c2ccccc12	-3	-2.7	·	-5%	-4
O=C(c1ccccc1)N1CCCCC(Sc2nnc3ccccn23)C1=O (configuration not stated)	-3	2.1	-36	3%	6
O=C(COc1coc(CN2CCCc3ccccc32)cc1=O)Nc1ccc([N+](=O)[O-])cc1	0	-1.6	·	·	·
Next section:
SMILES	Mtb betalactam	RecA intein inh	YopH PTP inh	Mtb growth	Arbovirus anti	others
CCn1ccc(C(=O)Nc2ccc3c(c2)CCC3)n1	-3	-0.5	·	·	·
Cc1cc(N2CCCC2)c(C)cc1C=O	50	-4.0	-11	-7%	5
CCOC(=O)C(=O)N(CC)C1CCS(=O)(=O)C1 (configuration not stated)	-1	0.7	·	-5%	·
COc1ccccc1-c1coc2c(CN3CCN(C)CC3)c(O)ccc2c1=O	-3	-6.2	-47	-7%	12
O=C(CN1CCN(C2CCCCC2)CC1)c1c[nH]c2ccccc12	2	1.8	-17	8%	3
O=C(CSc1ncc(-c2ccccc2)n1C1CCCC1)N1CCc2ccccc21	72	6.0	-31	14%	2
C[N+]12CCC(CC1)C(=C(c1ccccc1)c1ccccc1)C2	7	-2.5	-37	1%	6
Cc1cccc(NS(=O)(=O)c2ccc3c(c2)NC(=O)CC(=O)N3)c1	4	0.9	·	-5%	11
COc1ccc(C2C(C(=O)NCc3ccccn3)c3cc(OC)c(OC)cc3C(=O)N2C)cc1 (configuration not stated)	-10	·	-5	-1%	2	Arbovirus anti repeat=2
Cc1[nH]c2ccccc2c1/C=N\NC(=O)CNc1ccc2c(c1)OCO2	4	0.8	5	-1%	-6
O=C(Nc1ccc(N2CCN(C(=O)c3cccs3)CC2)cc1)c1cccc(F)c1	37	-0.2	·	·	·
Cc1ccc(SSc2cc(C)ccc2N)c(N)c1	-6	-3.1	·	·	·
COc1ccccc1N(CN1CCCC1=O)C(=O)c1c(F)cccc1Cl	-4	0.7	-36	-6%	5
Cc1cc(C)cc(N(CC(=O)NC2CCCCC2)C(=O)CNC(=O)c2ccco2)c1	-3	0.8	·	·	·
CCN1CCN(c2cc(C)c3cc(NC(=S)NCCCOC)ccc3n2)CC1	3	-2.2	·	·	·

Screening results deposited in PubChem BioAssay by several laboratories.
